# Assay outcomes: PubChem BioAssay, National Center for Advancing Translational Sciences (NCATS)
# PINK1 expr mod: changes PINK1 expression; PINK1 immunofluorescence, high-content cytometry, 24 h; Potency, µM (series often up to 76.6 µM), for inactives: at the highest dose activation (PINK1 increase), most hits filed as activators; 0.2% of 410,000 active; active = well fitted activation curve with a large enough effect; inconclusive = small, poorly fitted or top-dose-only effect; inactive = flat fitted curve, though single readings scatter; cell line not stated here;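 further: potency means the concentration at half of the fitted maximal effect; % of control where 0% means no effect; nearly all actives have a fitted effect of over 65% in size; a mitochondrial uncoupler was the plate control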
#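 Cells are seeded, rested 12 hours, then given compound at five concentrations or DMSO for 24 hours. After fixation, blocking and antibody staining, PINK1 amount and mitochondrial localization are scored; CCCP serves as control.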
# D2 ag: human D2 receptor agonism in beta-arrestin assay | P14416 | DiscoveRx PathHunter D2 beta-arrestin, luminescence, 90 min; 100% = 57 uM dopamine signal | activation, % (concentration not given with the values) | 0.084% of 360,000 active | AID 624465; in the data active = activation above about 40%; inconclusive = about 15% to 40%; inactive = below about 15%; further: compound concentration not given in the record; the text of the record calls up to 30% inactive
# Target sequence (P14416 whole entry, looked up): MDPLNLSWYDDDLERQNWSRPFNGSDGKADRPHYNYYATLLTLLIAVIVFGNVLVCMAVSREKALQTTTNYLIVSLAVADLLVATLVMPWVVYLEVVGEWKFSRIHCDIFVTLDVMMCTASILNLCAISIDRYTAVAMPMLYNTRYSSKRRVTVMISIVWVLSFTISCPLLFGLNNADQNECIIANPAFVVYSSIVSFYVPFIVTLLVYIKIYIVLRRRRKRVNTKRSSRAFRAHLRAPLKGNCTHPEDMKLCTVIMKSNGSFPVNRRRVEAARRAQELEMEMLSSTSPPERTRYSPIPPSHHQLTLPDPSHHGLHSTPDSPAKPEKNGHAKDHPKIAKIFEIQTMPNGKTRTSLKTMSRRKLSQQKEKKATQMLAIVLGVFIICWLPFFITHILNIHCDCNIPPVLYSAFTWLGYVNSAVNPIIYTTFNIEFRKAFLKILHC
#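 Agonist mode: compounds alone added to overnight-plated D2 PathHunter cells for 90 min at 37 C, with 57 uM final dopamine (EC100) defining full response. Beta-arrestin recruitment detected by chemiluminescent reagent, read after 1 h at ambient temperature.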
# TRPML1 ag: human mucolipin-1 channel agonism; 0.12% of 410,000 active; Q9GZU1; TRPML1-expressing cells, Ca2+ dye fluorescence, FDSS; host cell line not named in the record; reference of the full effect not given here; activation, % (test concentration not listed); in the data active = activation above about 50%; inconclusive = about 30% to 50%; inactive = below about 30%; further: 0% is about no effect; the text of the record puts the active cut at 80%
# Target sequence (Q9GZU1 whole entry, looked up): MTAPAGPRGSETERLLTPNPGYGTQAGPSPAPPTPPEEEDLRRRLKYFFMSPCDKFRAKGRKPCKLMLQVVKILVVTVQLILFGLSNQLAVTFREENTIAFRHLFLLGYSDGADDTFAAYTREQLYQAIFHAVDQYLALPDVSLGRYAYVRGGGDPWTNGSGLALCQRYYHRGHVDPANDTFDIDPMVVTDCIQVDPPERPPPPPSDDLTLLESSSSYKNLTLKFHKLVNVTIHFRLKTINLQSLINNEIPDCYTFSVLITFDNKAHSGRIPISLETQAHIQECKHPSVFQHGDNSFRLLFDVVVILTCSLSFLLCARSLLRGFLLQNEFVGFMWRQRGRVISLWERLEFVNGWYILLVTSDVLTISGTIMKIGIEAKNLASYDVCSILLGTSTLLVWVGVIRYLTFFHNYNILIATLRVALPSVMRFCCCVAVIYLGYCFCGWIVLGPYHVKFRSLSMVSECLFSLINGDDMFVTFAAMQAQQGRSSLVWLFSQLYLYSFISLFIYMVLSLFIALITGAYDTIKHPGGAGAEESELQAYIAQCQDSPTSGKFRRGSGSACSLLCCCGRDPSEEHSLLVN
#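 Kinetic FDSS Ca2+ read in Tet-induced TRPML1-DL cells (ABD Ca8 dye plus quencher, 45-90 min RT loading): baseline, then compound, then 110 s agonist window; EC80 agonist 54-4 at 4uM final added afterwards for a 110 s antagonist window.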
# D2 potentiator: positive allosteric modulators of human D2 dopamine receptor; P14416; DiscoveRx D2 beta-arrestin cells, luminescence, 90 min; 100% = 57 uM dopamine signal; potentiation, % (test concentration not listed); 0.23% of 360,000 active; AID 624464; active = potentiation of 50% or more; inconclusive = 30% to 50%; inactive = 30% or less;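 further: compound concentration not given in the record; tested on top of an EC20 dose of dopamine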
#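 PathHunter D2 cells, attached overnight at 37 deg C, received compound in DMSO plus dopamine at EC20 (50 nM final) for 90 min at 37 deg C. Beta-arrestin recruitment was read as luminescence after 1 h with detection reagent at ambient temperature.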
# Six1-Eya2 inh: Six1/Eya2 interaction inhibition. activity change, % (no concentration beside the values). AlphaScreen GST-Six1/His-Eya2 binding, biochemical; hits give low values; control for the full effect not named in the record. Q15475+O00167. 0.56% of 360,000 active; in the data active = activity change below about -65%; inconclusive = about -30% to -65%; inactive = above about -30%; further: on the % scale 0 is the no-effect control and ±100 the full control effect; compound concentration not given in the record
#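 Homogeneous AlphaScreen proximity assay pairing GST-Six1 with His-tagged Eya2 (added as 5X mix: 250 nM and 500 nM) in 50 mM Tris pH 8.0, 300 mM NaCl, 1 mM TCEP. Glutathione donor and nickel acceptor beads; 1 h, 37 °C, dark.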
# TRPML1 blocker: blocks the human TRPML1 channel; Q9GZU1; TRPML1-inducible cells, Ca2+ dye fluorescence, FDSS; hits give low values; inhibition of EC80 agonist-evoked calcium signal; activity change, negative = inhibition, % (concentration not given with the values); 0.02% of 390,000 active; in the data active means activity change below about -50%; inconclusive means about -30% to -50%; inactive means above about -30%;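 further: stimulus is agonist 54-4 at its EC80 concentration; on the % scale 0 is the no-effect control and ±100 the full control effect; compound concentration not given in the record; the text of the record puts the active cut at -80%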
#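 Tet-induced TRPML1-DL cells loaded with Ca8 no-wash calcium dye were read kinetically on FDSS. Compound addition was followed by EC80 agonist 54-4 (4 uM final); inhibition was read over 110 s.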
# Numbers without * were called inactive; ? = inconclusive; . = not tested or not shown.
Molecule	PINK1 expr mod	D2 ag	TRPML1 ag	D2 potentiator	Six1-Eya2 inh	TRPML1 blocker
O=C(CSc1ncc2c(n1)-c1ccccc1N(Cc1ccc(F)cc1)S2(=O)=O)NCc1ccccc1	-0.7%	.	0.9	.	.	-5.9
O=C1c2[nH]nc(-c3ccccc3O)c2C(c2ccc(Cl)cc2)N1CCc1ccccc1 (configuration not stated)	7.5%	.	5.2	.	.	5.2
Cc1ccccc1-c1cc(C(=O)NCc2ccco2)n(CC2CC(c3cccnc3)=NO2)n1 (configuration not stated)	9.3%	0.5	1.4	-17.2	-3.5	-5.7
COc1cccc(C(=O)NCCS(=O)(=O)N2CCCCC2)c1	-0.1%	-3.6	-0.2	-3.1	0.7	21.0
Cc1nc(C(=O)N2CCc3c([nH]c4ccccc34)C2c2ccccn2)cs1 (configuration not stated)	9.9%	3.1	1.0	-1.6	1.4	-1.9
COc1ccc(C2(O)C(=O)Nc3ccc(C)cc32)cc1 (configuration not stated)	-1.4%	-3.7	-0.8	-1.0	-9.9	13.3
Cc1cc(OCC(=O)NNC(=O)c2cnccn2)cc(C)c1Cl	2.6%	-3.0	-0.6	0.4	-7.9	-10.6
COc1ccccc1C(NC(=O)C1CCCCC1)c1c(O)ccc2ccccc12 (configuration not stated)	9.5%	-2.0	1.4	-12.9	6.5	21.8
CC(=O)c1cccc(NC(=O)c2cccc3c(-c4cccc(C(N)=O)c4)coc23)c1	10.3%	?	0.6	12.3	-18.4	.
Cc1ccc(C)c(N2CCN(C(=O)CN3C(=O)COc4ccc(S(=O)(=O)N5CCCC5)cc43)CC2)c1	-0.7%	.	1.1	.	.	-3.4
COc1ccc(CCNC(=O)c2cc(=O)c3cc(C)c(C)cc3o2)cc1OC	4.4%	.	-1.3	.	.	?
COc1ccc(/C=C/C(=O)OCC(=O)NCCC2=CCCCC2)cc1S(=O)(=O)N1CCOCC1	-1.4%	0.8	0.6	-21.7	-4.6	6.4
O=C(NCC(=O)N1CC=C(c2ccccc2)CC1)c1ccccc1Br	3.7%	-2.8	0.3	-26.1	2.4	1.1
Cc1cc(=O)[nH]c(N/N=C/c2cn(CCC#N)nc2-c2ccccc2)n1	-1.9%	-4.3	2.2	-6.3	-25.9	-10.0
CCc1c(C)c(C#N)c2nc3ccccc3n2c1NCCOC	-2.5%	1.7	-1.1	-5.6	4.4	-2.8

# Later entries:
Molecule	PINK1 expr mod	D2 ag	TRPML1 ag	D2 potentiator	Six1-Eya2 inh	TRPML1 blocker
Cc1ccccc1Sc1ccc([N+](=O)[O-])cn1	0.7%	-2.3	0.4	-9.3	-17.1	60.1
COc1cccc(-c2cc(C(=O)Nc3ccncc3)c3ccccc3n2)c1	14.0%	0.3	1.1	4.5	-0.5	9.7
CCCC(CCC(=O)Nc1ccc(C(=O)OCC)cc1)C(=O)O (configuration not stated)	3.4%	-1.0	-0.9	-2.4	-0.2	5.6
Cc1ccc(CNC(=O)C2CCN(S(=O)(=O)c3cn(C)cn3)CC2)cc1	-1.7%	.	2.9	.	.	17.6
COC(=O)C1C2C=CC(C3CC23)C1C(=O)OCC(=O)c1ccccc1 (configuration not stated)	-0.6%	-0.8	0.2	-18.4	7.3	-7.1
CC(=O)N1CCN(C(=O)COc2ccccc2C(=O)Nc2ccccc2)CC1	0.9%	-6.8	-0.3	1.9	0.6	7.9
CCC(=O)N1CCCc2cc(S(=O)(=O)N3CCC(C(=O)NC4CCC(C)CC4)CC3)ccc21 (configuration not stated)	-0.7%	.	0.7	.	.	-4.4
O=C1CC(c2nc3ccccc3n2Cc2c(F)cccc2Cl)CN1c1cccc(C(F)(F)F)c1 (configuration not stated)	-0.6%	.	1.2	.	.	-1.8
Cc1ccccc1CCNC(=O)CCn1ccc2cc(S(=O)(=O)N3CCCC3)ccc21	0.0%	-4.6	-0.6	-2.3	0.6	6.8
Nc1c(S(=O)(=O)c2cccs2)c2nc3ccccc3nc2n1Cc1cccs1	?	-4.0	-0.9	10.0	4.6	-0.2
O=[N+]([O-])c1cc(-c2nc(-c3ccccc3)no2)ccc1NCc1cccnc1	0.3%	.	-0.1	.	.	10.3
Nc1c(C(=O)c2ccccc2)sc2nsc(SCCN3CCOCC3)c12	6.2%	0.5	?	2.3	10.0	-4.0
O=C(Cn1c(=O)n(Cc2ccco2)c(=O)c2ccccc21)Nc1ccc(Cl)cc1Cl	5.6%	.	-0.3	.	.	1.0
O=C(NC(NCc1cccnc1)C(Cl)(Cl)Cl)c1cccc2ccccc12 (configuration not stated)	-0.7%	1.5	0.9	-30.8	-6.0	9.1
Cc1cc(C)n(C(C)CC(=O)Nc2cccc(C(F)(F)F)c2)n1 (configuration not stated)	-1.8%	.	0.1	.	.	-28.5

# Reprinted at random: 4 compounds from above
Molecule	PINK1 expr mod	D2 ag	TRPML1 ag	D2 potentiator	Six1-Eya2 inh	TRPML1 blocker
O=[N+]([O-])c1cc(-c2nc(-c3ccccc3)no2)ccc1NCc1cccnc1	0.3%	.	-0.1	.	.	10.3
Cc1cc(C)n(C(C)CC(=O)Nc2cccc(C(F)(F)F)c2)n1 (configuration not stated)	-1.8%	.	0.1	.	.	-28.5
COc1cccc(-c2cc(C(=O)Nc3ccncc3)c3ccccc3n2)c1	14.0%	0.3	1.1	4.5	-0.5	9.7
CC(=O)N1CCN(C(=O)COc2ccccc2C(=O)Nc2ccccc2)CC1	0.9%	-6.8	-0.3	1.9	0.6	7.9

# Next part.
Molecule	PINK1 expr mod	D2 ag	TRPML1 ag	D2 potentiator	Six1-Eya2 inh	TRPML1 blocker
CCc1nn2c(-c3ccccc3OC)ccnc2c1-c1ccc(F)cc1	4.7%	.	3.2	.	.	10.6
CN(NC(=O)c1ccco1)c1nc2ccccc2nc1C(F)(F)F	1.3%	4.2	-0.5	-2.2	3.1	3.4
Cc1ccc(NS(=O)(=O)c2ccc3c(c2)CC(C)N3C(=O)C2CCC2)cc1Cl (configuration not stated)	9.0%	.	2.4	.	.	4.4
O=C(Nc1ccc(F)cc1)Nc1cccnc1Cl	-0.5%	0.3	3.6	-3.1	9.4	3.9
O=C(Nc1ccccc1OC(F)F)c1ccc(S(=O)(=O)N2CCCC2)cc1	-0.5%	3.5	0.8	-2.1	-17.0	3.5
CCOC(=O)c1ccc(NC(=O)c2cc(=O)c3cc(CC)ccc3o2)cc1	1.0%	.	-0.8	.	.	-0.2
Cc1ccc(C(=O)N/N=C\c2ccc[nH]2)cc1[N+](=O)[O-]	6.9%	-0.1	-0.3	-31.3	-1.6	-1.0
CCC1C(=O)NCCN1C(=O)c1ccccc1OC1CCN(S(C)(=O)=O)CC1 (configuration not stated)	1.3%	6.3	3.7	5.5	2.3	5.8
CCOc1ccc(Br)cc1S(=O)(=O)NCCN1CCCC1	-1.2%	-2.1	-0.8	-9.2	0.6	-4.1
CC(C)[C@H](NS(=O)(=O)c1ccc2c(c1)OCCO2)C(=O)OCC(=O)Nc1ccccc1Cl	-0.8%	1.5	-0.1	-8.4	6.0	12.4
COc1ccc2cc(/C=N/NC(=O)c3c(Cl)cnn3C)c(Cl)nc2c1	?	-0.2	1.4	-10.5	-1.5	18.0
CCCc1nc2ccc(NC(=O)NCCC(=O)OCC)cc2c(=O)n1Cc1ccc(Cl)cc1	1.8%	0.5	1.0	-3.6	-2.9	29.4
CCOCC(=O)N1CCCC(C(=O)OCC)C1 (configuration not stated)	-0.3%	2.1	0.8	-15.9	5.7	22.1
COc1cccc(/C=N/Nc2nnc(C)n2N)c1O	0.4%	9.7	0.9	4.5	-73.3*	29.7
COc1ccc(S(=O)(=O)N2CCCCC2)cc1NC(=S)Nc1ccccc1	1.9%	-2.1	0.2	12.7	3.5	25.3

# (listing goes on)
Molecule	PINK1 expr mod	D2 ag	TRPML1 ag	D2 potentiator	Six1-Eya2 inh	TRPML1 blocker
COc1ccc(NC(=O)CSc2nc3ccccc3n2CC(=O)N2CCCCC2C)cc1 (configuration not stated)	1.2%	.	-0.3	.	.	9.6
CC(O)(C(=O)c1ccccc1)c1ccccc1 (configuration not stated)	2.6%	-1.9	-1.4	1.1	-0.7	.
COc1ccc(-c2csc(NC(=O)c3ccccc3F)n2)cc1	0.8%	2.4	.	11.8	2.2	.
Cc1ncc([N+](=O)[O-])n1Cc1cccc(F)c1	0.7%	-2.2	-0.6	-6.0	3.6	8.9
Cc1ccc(CN2C(=O)CNC2=S)cc1	-0.8%	-1.7	0.7	1.7	3.9	16.8
O=C(c1cc(-c2ccccc2Cl)nc2ccccc12)N1CCC1	5.4%	-3.0	-1.1	-12.0	-1.1	-0.8
CCOc1ccc(S(=O)(=O)N(CC(=O)N2CCc3ccccc32)Cc2ccco2)cc1	-1.0%	-5.9	-0.3	-14.9	-8.0	1.1
CCN(CC)S(=O)(=O)c1ccc(N2CCOCC2)c(NS(=O)(=O)c2ccc(C(C)C)cc2)c1	9.7%	-0.6	0.8	-12.6	-3.1	23.8
Cc1cccc(N2CCN(S(=O)(=O)c3ccc4c(c3)n(C)c(=O)c(=O)n4C)CC2C)c1 (configuration not stated)	?	-4.5	-1.0	-9.2	0.3	-19.4
CCOc1ccc(NC(=O)N(CCC(C)C)C(C)c2ccco2)cc1 (configuration not stated)	-1.0%	-3.1	2.3	4.7	-6.6	-22.2
O=C(NCC1CCCO1)c1cccc(S(=O)(=O)Nc2ccc(SC(F)F)cc2)c1 (configuration not stated)	0.6%	0.0	0.7	3.6	-3.3	10.3
CCCCN(C(=O)CC1CCCC1)c1c(N)n(CCCC)c(=O)[nH]c1=O	0.1%	-3.1	-0.4	-2.4	-0.5	-5.4
O=C(N/N=C\c1cc(Br)cs1)c1ccncc1	0.6%	-4.2	-0.8	-21.1	-11.8	37.2
CC(C)n1c(N2CCN(C(=O)Nc3ccc(Cl)cc3)CC2)nc2ccccc21	6.9%	-1.5	-0.3	0.1	-2.6	9.0
CCOc1ccc(CNCCSc2nnnn2C)cc1	1.4%	.	-0.1	.	.	6.3

# Additional results.
Molecule	PINK1 expr mod	D2 ag	TRPML1 ag	D2 potentiator	Six1-Eya2 inh	TRPML1 blocker
CN1C/C(=C/c2cccnc2)C(=O)/C(=C/c2cccnc2)C1	-2.8%	-4.6	0.1	-7.8	12.6	4.1
Cc1ccc(-n2ncc3c(NCCCN4CCOCC4)ncnc32)cc1	2.9%	.	1.1	.	.	26.1
C[C@H](NC(=O)NC1CCCc2ccccc21)C(=O)O (some centres not stated)	0.9%	-0.9	-0.7	-9.7	-0.1	-1.8
CC1CCN(S(=O)(=O)N2CCC(C(=O)NCCc3ccccc3)CC2)CC1	-1.2%	0.5	0.1	-2.8	0.7	3.7
CCCNC(=O)CSC1=N/C(=C/c2ccc(F)cc2)C(=O)N1CC	-6.0%	-1.9	0.5	-12.9	3.9	-5.1
O=c1c2ccccc2sn1-c1cccc(Cl)c1	?	-6.9	5.5	-19.7	-11.1	-1.3
COC(CNS(=O)(=O)c1ccc(S(=O)(=O)N2CCCC2)cc1)OC	-1.2%	-2.8	0.3	-1.9	-9.2	32.8
